E coli growth = E. coli growth inhibition, primary screen, OD600. AID 1053175, 2014. Escherichia coli growth, 23 h; active compounds read low. OD600 absorbance (test concentration not listed). 330,000 tested, 0.21% active;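 active means OD600 absorbance below the run mean of sample wells minus 3.6 SD, in any replicate, cut at about 0.56 in these data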;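 further: stock transfer was 300 nL into about 60 µL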
MLL AF4-AF9 inh = inhibitors of AF4 peptide binding to AF9, primary screen, biochemical, AlphaScreen, biotin-AF4 peptide, FLAG-AF9, single point. Protein AF-9 (Homo sapiens), P42568. inhibition, % at 10 µM. 350,000 tested, 0.47% active. AID 651704, 2012;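 active means every replicate reaching a set inhibition limit, whatever the replicate mean, cut at about 25% in these data; inconclusive means mean inhibition reaches that limit but some replicates miss it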;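 further: 0% = plate neutral control median and 100% = total signal loss; the record names both 10 and 1 µM as test concentration; the first replicate is given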
Target sequence (P42568 whole entry, looked up): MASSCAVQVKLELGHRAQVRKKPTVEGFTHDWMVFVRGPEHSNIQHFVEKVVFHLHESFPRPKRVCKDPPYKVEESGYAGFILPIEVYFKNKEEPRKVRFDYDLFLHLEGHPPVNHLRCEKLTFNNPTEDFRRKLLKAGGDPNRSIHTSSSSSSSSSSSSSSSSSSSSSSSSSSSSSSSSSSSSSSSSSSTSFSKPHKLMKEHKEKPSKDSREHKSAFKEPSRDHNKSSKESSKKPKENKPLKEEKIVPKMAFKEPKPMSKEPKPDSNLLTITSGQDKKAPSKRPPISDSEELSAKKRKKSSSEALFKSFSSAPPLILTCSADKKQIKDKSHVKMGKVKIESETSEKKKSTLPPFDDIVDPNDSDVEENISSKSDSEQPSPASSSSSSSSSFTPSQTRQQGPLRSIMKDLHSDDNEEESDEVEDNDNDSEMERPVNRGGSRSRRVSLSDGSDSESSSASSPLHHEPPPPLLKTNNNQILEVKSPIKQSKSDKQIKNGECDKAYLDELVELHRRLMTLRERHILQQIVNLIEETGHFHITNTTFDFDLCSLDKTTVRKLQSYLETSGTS
FGF22 binding = binders of human FGF22 protein, primary screen, FGF22 synaptogenesis inhibitor project, biophysical, thermal shift, single point. calls only at 9.99 µM. recombinant FGF22 thermal shift, SYPRO orange fluorescence; percent of sucrose octasulfate shift, DMSO zero. 340,000 tested, 1.5% active. Fibroblast growth factor 22 (Homo sapiens), Q9HCT0;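 active means melting point raised past a set limit in the mean and every replicate; inconclusive means no clear call; three in four hits are not shown here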
Target sequence (Q9HCT0 whole entry, looked up): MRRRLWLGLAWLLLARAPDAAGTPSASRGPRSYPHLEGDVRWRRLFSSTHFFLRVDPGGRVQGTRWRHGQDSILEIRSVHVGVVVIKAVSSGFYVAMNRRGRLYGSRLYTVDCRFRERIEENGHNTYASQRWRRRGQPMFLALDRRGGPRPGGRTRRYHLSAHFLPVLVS
Vif TR-FRET = inhibitors of Vif binding to APOBEC3G peptide, primary screen, biochemical, TR-FRET, GST-Vif 1-94, biotin-A3G peptide, dose response retest (AID 1117319); 260,000 tested, 0.57% active; TR-FRET GST-Vif / biotin-A3G peptide binding; higher % means a stronger effect; test concentration not given here; strong numbers were not always called active; inhibition, %, or IC50 in µM where a hit was titrated;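 active means above the screen mean plus three standard deviations and confirmed in dose response; inconclusive means results disagree or hit not tested in dose response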;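 further: Vif residues 1-94 fused to GST binding biotinylated APOBEC3G peptide 110-148; 0% = full assay without inhibitor and 100% = GST in place of GST-Vif; retest series ran down from 100 µM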
UCH37 inh = inhibitors of human UCH37 deubiquitinase, primary screen, biochemical, Ub-AMC cleavage, fluorescence | AID 588478, 2011 | Ubiquitin carboxyl-terminal hydrolase isozyme L5 (Homo sapiens), Q9Y5K5 | 330,000 tested, 0.33% active | purified proteasome/UCH37 | inhibition, % (no concentration beside the values);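 active means mean of two replicates above 20%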;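 further: 0% = compound-free wells with enzyme and 100% = wells lacking proteasome; stock transfer was 100 nL into about 20 µL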
Target sequence (Q9Y5K5 whole entry, looked up): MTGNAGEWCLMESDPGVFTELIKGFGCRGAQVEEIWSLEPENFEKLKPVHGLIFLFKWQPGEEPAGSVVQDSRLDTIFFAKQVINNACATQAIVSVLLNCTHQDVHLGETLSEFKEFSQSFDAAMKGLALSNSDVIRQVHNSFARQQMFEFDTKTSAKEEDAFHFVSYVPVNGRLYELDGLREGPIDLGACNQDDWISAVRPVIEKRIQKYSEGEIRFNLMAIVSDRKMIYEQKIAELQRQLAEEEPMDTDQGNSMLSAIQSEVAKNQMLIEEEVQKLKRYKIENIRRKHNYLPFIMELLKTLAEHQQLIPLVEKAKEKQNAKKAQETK
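Material: Human UCH37 enzyme supplied as purified proteasome complex | Schedule: 30 min compound-proteasome preincubation then 25 min substrate reaction, room temperature | Detection: AMC fluorescence from Ub-AMC cleavage, excitation 355 nm, emission 460 nm | Benchmarks: Wells without proteasome as full block, compound-free enzyme plus substrate as uninhibited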
HNF4A DNA FP = change in binding of human HNF4A to DNA, primary screen, biochemical, fluorescence polarization, FITC-DNA; 1 h; AID 1224865, 2016; Hepatocyte nuclear factor 4-alpha (Homo sapiens), P41235; 360,000 tested, 0.3% active; activity change, % at 10 µM; in the data active means activity change above about 30%, passing the limit was not always enough;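 further: controls were the assay level and a saturating level of protein; the project sought stronger binding though the title names inhibitors; some compounds called inactive have numbers as strong as hits; positive values seem to mean higher polarization but the record does not say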
RanGTP-Impb inh = inhibitors of RanGTP-importin-beta interaction, primary screen, biochemical, FRET, CFP-Ran, YFP-importin-beta, homogeneous. Ran GTPase (GTP-bound) - importin-beta complex. cell-free CFP-Ran/YFP-importin-beta FRET ratio. inhibition, % (no concentration beside the values). 300,000 tested, 1.1% active;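 active means most replicates above 15%; inconclusive means exactly half above 15%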;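 further: 0% = DMSO wells and 100% = Ran loaded with GDP instead of GTP; wells of about 40 µL received 100 nL stock; the first replicate is given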
An asterisk follows results filed as active; i = inactive; ? = inconclusive; / = no result given; & = joins results of further samples. These rows are one share of the data. The share of hits here may be higher or lower than overall.

SMILES	E coli growth	MLL AF4-AF9 inh	FGF22 binding	Vif TR-FRET	UCH37 inh	HNF4A DNA FP	RanGTP-Impb inh
Cc1nn(Cc2c(Cl)cccc2Cl)c(C)c1NC(=O)c1sc2ccccc2c1Cl	0.68	/	/	7%	4.6	0.0	2.5
CC(C)C(=O)Nc1c(-c2cccs2)c(=O)c2ccccc2n1C	0.75	/	/	3%	-3.5	3.4	3.3
CC(C)(C)C(=O)c1c(N)[nH]c(C(=O)c2ccccc2)c1-c1ccc(Br)cc1	/	0.2	i	/	/	5.3	/
NNC(=O)c1cc2ccccc2cc1O	0.67	/	/	1%	2.4	-2.4	-8.1
O=C(c1ccccc1)c1ccccc1C(=O)N1CCN(Cc2ccccc2F)CC1	0.7	-3.6	i	-2%	0.9	-2.1	/
O=C(Nc1ccc(S(=O)(=O)N2CCCCCC2)cc1)C1CCCO1 (stereo unspecified)	0.67	/	/	-6%	1.2	3.7	-0.4
COc1ccc(C(=O)N2CCCCCCC2)cc1OC1CCN(C(C)C)CC1	0.65	-3.5	i	/	0.6	-4.3	-1.7
CCOc1ccccc1NC1=C(OC)C(=O)C(Nc2ccccc2OCC)=C(OC)C1=O	/	-8.5	i	-2%	/	-3.2	/
COC(=O)N(C)C[C@@H]1OCc2cnnn2CCCC(=O)N([C@H](C)CO)C[C@@H]1C	/	-0.2&4.0&-0.6	i	1%	/	-6.0	/
O=C(Cn1c(=O)oc2ccccc21)Nc1ccc2c(c1)OCCO2	0.65	/	/	2%	2.2	0.5	-0.9
O=C1CC(N2CCN(Cc3ccccc3)CC2)C(=O)N1c1ccccc1 (stereo unspecified)	0.66	/	/	?	5.7	7.2	0.1
COc1ccc(-c2csc(NC(C)c3nc4cc(Cl)c(Cl)cc4n3CCCO)n2)cc1 (stereo unspecified)	0.71	-1.7	i	/	-2.0	0.4	0.5
CCO[C@H]1OC(C(=O)O)=C[C@@H](c2ccc(C(F)(F)F)cc2)[C@@H]1CCCO	/	-2.9&-30	i	1%	1.7	3.6	1.1
COc1ccc(-c2[nH]nc3c2C(c2ccccc2OC(=O)N2CCOCC2)C(C#N)=C(N)O3)cc1 (stereo unspecified)	0.69	/	/	12%&-7%	1.9	-0.4	5.6
COc1ccc(C(=O)Nc2cccc(-c3nnc(-c4ccco4)o3)c2)cc1	0.69	/	/	-1%	4.6	1.8	1.3
Cc1ccccc1NC(=O)CSc1ccncc1	0.69	-23	i	/	4.2	4.1	5.2
CCOC(=O)C1CCN(C(=O)CN(c2ccc3c(c2)OCO3)S(C)(=O)=O)CC1	0.73	/	/	1%	1.3	1.9	1.1
CCCCCC(=O)N1C[C@@H](O)[C@H](n2cc(COC(=O)c3ccccc3)nn2)C[C@@H]1c1ccccc1	/	0.0	i	/	/	5.6	/
CCOc1cc(C)c(Cl)cc1S(=O)(=O)NCc1ccc2c(c1)OCO2	0.69	/	/	-5%	-3.0	-0.3	0.8
O=C(C=Cc1ccc2c(c1)OCO2)OCC=Cc1ccc2c(c1)OCO2	0.72	-0.3	i	-4%	-4.4	14	/
COCCNC(=O)C1(C)CCN(C(=O)c2sc(-c3ccccc3)nc2C)C1 (stereo unspecified)	/	-2.5	i	/	/	-1.3	/
Cc1ccc2nc(-c3ccccc3)cc(C(=O)N3CCc4ccccc4C3)c2c1	0.71	/	/	24%	3.3	0.1	3.6
Cc1ccccc1NC(=S)Nc1ccccn1	0.62	-8.5	i	-10%	-0.2	0.3	?
CC(C)C[C@H]1CNC(=O)C(=O)N1CC1CCN(CCC(C)(C)C)CC1	/	-0.6	i	-8%	/	3.7	/
COc1ccc(S(=O)(=O)CCC(=O)N2CC(=O)N(CCc3ccccc3)C(=O)C2)cc1	0.72	/	/	21%	1.7	-6.5	/
COCC(=O)n1cc(C(=O)OC)c2ccccc21	0.74	/	/	/	5.8	8.4	-4.3
COc1ccc(CCCc2n[nH]c(=S)o2)cc1	0.67	-3.0	i	?	3.3	-2.0	1.9
C=CCNC(=O)C12CC3CC(C1)CC(C(=O)NCC=C)(C3)C2	0.66	/	/	23%	-1.0	0.4	5.1
CCc1ccccc1N(CC(=O)N1CCc2ccccc2C1)S(C)(=O)=O	0.71	-4.1	i	/	3.2	0.7	3.5
COc1c(C)cc(C(=O)C2CCCN(C(=O)c3cccc(-n4cccn4)c3)C2)cc1C (stereo unspecified)	0.69	-0.7	i	?	0.7	-1.2	4.3
Cc1cc(C)n(CC(=O)Nc2ccc([N+](=O)[O-])cc2)n1	0.68	-1.3	i	-2%	4.0	-1.4	-2.0
COc1ccc(CCNC(=O)CSc2nc3[nH]ncc3c(=O)n2-c2ccccc2Br)cc1OC	/	4.5	i	8%	/	0.2	0.7
CCCCCC(=O)Nc1cccc(C2=NOC3(C2)C[C@H](C(N)=O)N(C(=O)CCCCC)C3)c1 (stereo partly specified)	/	-3.9	i	14%	-0.1	-2.7	-0.1
CCOc1ccc(NS(=O)(=O)c2ccc(C(=O)N3CCCC3)cc2)cc1	0.6	0.9	i	8%	-0.4	-2.3	2.8
COc1cc2c(cc1NC(=O)COC(=O)[C@@H](NS(=O)(=O)c1cccc(Cl)c1)C(C)C)oc1ccccc12	0.69	/	/	-8%	-2.4	-1.8	-3.6
CCCCCCSc1ccc([C@H]2N[C@@](C)(C(=O)OC)[C@H]3C(=O)N(C)C(=O)[C@@H]23)cc1	/	-4.4	i	/	4.1	2.3	?
CCCNC(=O)c1nc(C)n(-c2ccc([N+](=O)[O-])cc2)n1	0.68	-1.2	i	0%	2.7	0.9	-3.0
COCCNC(=O)c1ccc(C2SCC(=O)N2Cc2ccco2)cc1 (stereo unspecified)	0.69	-2.4	i	/	-0.3	-3.2	?
Cn1c(=O)n(C)c2cc(S(=O)(=O)O)ccc21	0.69	/	/	1%	0.6	1.5	0.6
C[C@@H]1Cc2c(O)c(O)cc(O)c2C(=O)O1	0.77	/	/	/	-0.9	-7.2	-1.5

Single records (already shown). Screens in order: E coli growth	MLL AF4-AF9 inh	FGF22 binding	Vif TR-FRET	UCH37 inh	HNF4A DNA FP	RanGTP-Impb inh
COc1ccc(S(=O)(=O)CCC(=O)N2CC(=O)N(CCc3ccccc3)C(=O)C2)cc1 reads 0.72	/	/	21%	1.7	-6.5	/
COc1cc2c(cc1NC(=O)COC(=O)[C@@H](NS(=O)(=O)c1cccc(Cl)c1)C(C)C)oc1ccccc12 reads 0.69	/	/	-8%	-2.4	-1.8	-3.6
COCCNC(=O)c1ccc(C2SCC(=O)N2Cc2ccco2)cc1 (stereo unspecified) reads 0.69	-2.4	i	/	-0.3	-3.2	?
Cc1ccc2nc(-c3ccccc3)cc(C(=O)N3CCc4ccccc4C3)c2c1 reads 0.71	/	/	24%	3.3	0.1	3.6

Additional structures follow.
SMILES	E coli growth	MLL AF4-AF9 inh	FGF22 binding	Vif TR-FRET	UCH37 inh	HNF4A DNA FP	RanGTP-Impb inh
CSc1ncccc1C(=O)OCC(=O)NCCC1=CCCCC1	0.7	-3.8	i	0%	3.7	-2.3	5.0
CCCCc1ccc(NS(=O)(=O)N(C)C)cc1	0.69	/	/	18%	4.5	4.2	-3.2
COc1ccc(/C=C2\SC(=O)N(CC(=O)N(C)C3CCS(=O)(=O)C3)C2=O)cc1 (stereo unspecified)	0.65	2.0	i	/	13	-2.0	2.1
CC1(C(=O)NCCCN2CCCC2=O)CCN1CCc1ccccc1 (stereo unspecified)	/	-0.3	i	/	/	1.7	/
O=C(c1ccc(Cl)c(S(=O)(=O)N2CCCCCC2)c1)N1CCN(CCO)CC1	0.69	/	/	1%	-2.0	1.2	2.0
C/C(CCc1ccc2c(c1)OCO2)=N\N=C1\NC(=O)CC(C(=O)Nc2ccc(C(=O)O)cc2)S1 (stereo unspecified)	/	-3.0	i	/	/	-3.4	/
CCc1cccc(C)c1NC(=O)CN(C)S(=O)(=O)c1ccc(-c2ccc(=O)[nH]n2)s1	0.71	3.1	i	-7%	3.6	2.7	3.8
Cc1ccc(C)c(NC(=O)C2Cc3ccccc3CN2C(=O)OCc2ccccc2)c1 (stereo unspecified)	0.72	/	/	12%	-0.5	5.4	-1.6
CCOC(=O)/C(C#N)=C/c1ccc(OCC(=O)Nc2ccc(OC)cc2)c(OC)c1	0.75	/	/	20%	-4.1	-4.0	2.4
CN(CC(=O)Nc1ccc(N2CCOCC2)cc1)Cc1cc(=O)n2ccsc2n1	0.73	1.0	i	5%	-1.7	-1.8	?
O=C(C1CC1)N(CCN(C(=O)C1CC1)c1ccccc1)c1ccccc1	0.74	/	/	-7%	1.7	-0.9	2.2
CCCCC/S(CC1CC1(Cl)Cl)=N\S(=O)(=O)c1ccc(C)cc1 (stereo unspecified)	0.66	-1.7	i	-7%	-0.7	-0.2	?
Cc1occc1-c1nnc(SCC(=O)c2ccc(F)cc2)n1Cc1ccco1	0.69	/	/	14%	-0.4	4.1	2.2
COc1ccc(-c2c(C)nc3c(-c4ccc(F)cc4)cnn3c2N)cc1	0.72	-3.0	i	2%	i	-1.6	-0.6
Cc1cccc(C(=O)OCC(=O)N(C)CC(=O)Nc2ccc(Cl)c(C(F)(F)F)c2)c1	0.71	0.2	i	-10%	-1.7	-0.6	/
CCOc1nc(NCc2ccco2)nc(Nc2ccc(OC)cc2)n1	0.69	/	/	2%	2.7	-4.0	1.9
COc1ccc(/C=C/C2=NC(=C\N(C)C)/C(=O)O2)cc1	/	/	/	81%	-29	1.0	?
COC(=O)c1cc(=O)n(-c2ccc(C(F)(F)F)cc2)[nH]1	0.66	-0.9	i	9%	2.8	5.2	1.5
COCC(CN1CCN(C2=NS(=O)(=O)c3ccccc32)CC1)OC(=O)c1ccc(OC)cc1 (stereo unspecified)	0.69	-6.0	i	-4%	1.1	5.8	-1.5
COCCN1Cc2c(sc(C)c2C)N(C(=O)c2ccccc2)C1	0.71	/	/	22%	1.7	1.9	0.9
CCOc1ccc(N2CCc3c(C)nc(SC)nc32)cc1	0.68	1.2	i	-30%	4.4	2.3	-1.8
CCN(CC)S(=O)(=O)c1cccc(-c2n[nH]c(=S)n2C(C)COC)c1 (stereo unspecified)	0.7	-3.3	/	-10%	1.4	3.4	?
COc1ccc(/C=N/N=C/c2ccc(OC)cc2)cc1	/	-2.5	i	2%	/	-1.1	2.2
Cc1ccccc1CN1CCN(c2nc3ccccc3s2)CC1	0.67	0.6	i	2%	5.5	2.8	?
Cc1c(C(=O)N2CCN(c3ccccn3)CC2)cccc1[N+](=O)[O-]	0.71	-5.3	i	7%	-2.1	0.1	?
CCN(C(=O)COc1cc(=O)n(C)c2ccccc12)c1cccc(Cl)c1	0.74	/	/	5%	1.0	1.4	11
COc1ccccc1CNC(=O)c1cc(-c2cc(F)ccc2OC)n[nH]1	/	-11	i	/	/	2.0	/
CCOC(=O)C1=C(COC(=O)COc2cc(C)ccc2C)NC(=O)NC1C (stereo unspecified)	0.7	1.0	i	1%	-0.9	-2.6	-5.6
CC(=O)Nc1ccc(S(=O)(=O)N(Cc2ccccc2)c2ccccn2)cc1	0.68	-1.2	i	/	3.0	0.6	2.4
COCCNC(=O)C1(C)CCCN(Cc2ccc(C)c3ccccc23)C1 (stereo unspecified)	/	3.1	i	/	/	1.8	/
